MLL AF4-AF9 inh – inhibitors of AF4 peptide binding to AF9, primary screen, biochemical, AlphaScreen, biotin-AF4 peptide, FLAG-AF9, single point; Protein AF-9 (Homo sapiens), P42568; inhibition, % at 10 µM; 0.47% of 350,000 active; AID 651704, 2012;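 active = every replicate reaching a set inhibition limit, whatever the replicate mean, cut at about 25% in these data; inconclusive = mean inhibition reaches that limit but some replicates miss it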;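 also: 0% = plate neutral control median and 100% = total signal loss; the record names both 10 and 1 µM as test concentration; the first replicate is given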
Target sequence (P42568 whole entry, looked up): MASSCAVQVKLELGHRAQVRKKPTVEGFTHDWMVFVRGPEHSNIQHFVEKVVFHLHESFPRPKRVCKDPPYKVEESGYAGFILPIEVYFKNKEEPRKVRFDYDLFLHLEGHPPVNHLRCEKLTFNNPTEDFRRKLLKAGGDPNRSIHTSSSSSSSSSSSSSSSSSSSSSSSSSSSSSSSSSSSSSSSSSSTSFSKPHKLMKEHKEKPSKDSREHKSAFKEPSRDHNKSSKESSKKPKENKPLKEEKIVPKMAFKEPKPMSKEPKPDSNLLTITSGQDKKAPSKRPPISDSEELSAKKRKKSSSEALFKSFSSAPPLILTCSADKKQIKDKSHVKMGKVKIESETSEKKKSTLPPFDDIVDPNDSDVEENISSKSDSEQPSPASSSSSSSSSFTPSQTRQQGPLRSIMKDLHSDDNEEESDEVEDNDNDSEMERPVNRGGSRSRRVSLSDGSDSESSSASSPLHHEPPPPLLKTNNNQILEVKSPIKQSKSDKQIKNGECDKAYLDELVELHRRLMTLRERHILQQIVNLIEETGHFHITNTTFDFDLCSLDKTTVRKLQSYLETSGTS
Bfl-1 A1 inh – caspase 3/7 activation in MEF A1-2A-BIM cells, primary screen, A1 inhibitor project, cell-based, luminescence, HTS. AID 2462, 2010. caspase activation, % (concentration not given with the values). Caspase-Glo 3/7 luminescence, 3 h; percent of clofoctol response, vehicle zero. 0.066% of 330,000 active;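 active = over half of replicate activation scores above 10%, or exactly half above 10 with the replicate mean above 10; inconclusive = replicate mean below 10 yet half the replicates above 10; inactive = over half of replicates below 10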;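 also: wells of about 30 µL received 50 nL stock; many hits fall short of the cut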
RanGTP-Imp inh – inhibitors of RanGTP-importin-beta interaction, primary screen, biochemical, FRET, CFP-Ran, YFP-importin-beta, homogeneous; Ran GTPase (GTP-bound) - importin-beta complex; cell-free CFP-Ran/YFP-importin-beta FRET ratio; inhibition, % (no concentration beside the values); 1.1% of 300,000 active;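 active = most replicates above 15%; inconclusive = exactly half above 15%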;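 also: 0% = DMSO wells and 100% = Ran loaded with GDP instead of GTP; wells of about 40 µL received 100 nL stock; the first replicate is given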
Ecoli rRNA inh – reduced GFP signal of wild-type E. coli, primary screen, bacterial rRNA inhibitor project, GFP/RFP fluorescence, OD600, single point. GFP signal change (wild-type ribosome), % (no concentration beside the values). 1.6% of 350,000 active. AID 720706, 2013. E. coli WT GFP vs humanized-ribosome RFP mutants, 24 h; active compounds read low; DMSO median 0, no signal -100;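 active = significant combined selectivity score with lowered wild-type GFP, culture density cut under 30%, mutant RFP and density less affected; inactive = any of these conditions unmet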; also: one replicate is shown; some compounds called inactive have numbers as strong as hits
Vif A3G – inhibitors of Vif binding to APOBEC3G peptide, primary screen, biochemical, TR-FRET, GST-Vif 1-94, biotin-A3G peptide, dose response retest (AID 1117319) | Virion infectivity factor (Human immunodeficiency virus type 1 group M subtype B (isolate … | TR-FRET GST-Vif / biotin-A3G peptide binding; higher % means a stronger effect; test concentration not given here; strong numbers were not always called active | one-dose inhibition, %; IC50 in µM for titrated hits | 0.57% of 260,000 active;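 active = above the screen mean plus three standard deviations and confirmed in dose response; inconclusive = results disagree or hit not tested in dose response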;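 also: Vif residues 1-94 fused to GST binding biotinylated APOBEC3G peptide 110-148; 0% = full assay without inhibitor and 100% = GST in place of GST-Vif; retest series ran down from 100 µM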
Calb FLC – C. albicans growth inhibition with fluconazole, primary screen, CaCi-2 strain, Alamar Blue fluorescence; C. albicans CaCi-2 (fluconazole-resistant clinical isolate) + fluconazole, 48 h; growth inhibition, % (concentration not given with the values); 0.57% of 300,000 active;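 active = most replicates above 75%; inconclusive = exactly half above 75%; inactive = most below 75%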;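 also: all wells also contain fluconazole at 8 µg/ml as a sub-toxic cotreatment; 0% = median of DMSO wells and 100% = median of geldanamycin control wells; wells of about 8 µL received 7.5 nL stock; the first replicate is given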
Beta apoptosis – inhibitors of cytokine-induced beta cell apoptosis, primary screen, luminescence. INS-1E cytokine-induced death, ATP luminescence, 48 h; percent of positive-control rescue, neutral wells zero. protection from apoptosis, % (no concentration beside the values). 0.8% of 300,000 active;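 active = all replicates at 75% or more, or half of them and the mean; inconclusive = half reach 75% but not the mean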;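 also: 0% = cytokine-treated negative control wells and 100% = positive control rescue; higher means more ATP so stronger rescue from cytokine killing; wells of about 40 µL received 100 nL stock; the first replicate is given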
T cruzi repl – inhibitors of intracellular T. cruzi growth, primary screen, luminescence, NIH3T3 host cells. AID 1885, 2009. 1.4% of 300,000 active. T. cruzi beta-gal in NIH3T3, 90 h. inhibition, % (test concentration not listed);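 active = mean inhibition across valid replicates above about 55%, limit read from the data; inconclusive = mean below that limit but half or more replicates reach it; inactive = mean below it, under half of replicates reach it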;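 also: signal also drops with host cell toxicity which is not excluded here; 0% = plate median of DMSO wells and 100% = zero luminescence signal; higher percent means less beta-gal luminescence so fewer parasites; stock transfer was 50 nL into about 50 µL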
Ecoli rRNA inh OD600 – second read-out of Ecoli rRNA inh, no call of its own (marks repeat the call); OD600 change, %; measured here: OD600 growth;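 optical density of the mix in the first replicate; 0 = DMSO median and -100 = no signal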
Ecoli rRNA inh RFP – recorded beside Ecoli rRNA inh, whose call it bears; RFP signal change, %; measured here: RFP humanized mutant strains;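 first replicate; 0 = DMSO median and -100 = no signal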
* = called active by the depositor; ? = inconclusive; nt = no result given; & = joins results of further samples.

SMILES	MLL AF4-AF9 inh	Bfl-1 A1 inh	RanGTP-Imp inh	Ecoli rRNA inh	Ecoli rRNA inh OD600	Ecoli rRNA inh RFP	Vif A3G	Calb FLC	Beta apoptosis	T cruzi repl
NC(=O)NC(=O)COC(=O)c1ccc(OC(F)(F)F)cc1	-3.2	1.2	0.3	0	6	-0.4	9%	-4	-3	10
COc1cccc(/C=N/n2c(-c3ccco3)nc3ccccc3c2=O)c1OC	nt	-2.3	3.2	nt	nt	nt	nt	21	1	-13
CCOC(=O)N1CCN(C(=O)CN(Cc2ccc(Cl)cc2)S(=O)(=O)c2ccc(C)cc2)CC1	nt	0.9	-3.1	nt	nt	nt	-3%&-4%	25	-1	22
COc1ccccc1N(Cc1cc(=O)[nH]c2ccccc12)C(=O)c1ccc([N+](=O)[O-])cc1	-5.9	-0.4	-4.4	9	1	8.4	nt	4	-6	14
O=C(c1cc(COc2cccc(C(F)(F)F)c2)on1)N1CCc2ccccc2C1	-2.0	-1.6	2.4	-22	-23	-3.2	nt	6	-5	-12
COc1cc(C(=O)NCC(=O)N/N=C(/C)c2ccc3c(c2)CCCC3)cc(OC)c1OC	-2.2	0.7	-3.0	17	14	-0.6	1%	-6	-2	3
N#C/C(=C\c1cn(Cc2cccc(F)c2)c2ccccc12)C(=O)NCc1ccco1	-11	-0.1	?	nt	nt	nt	-1%	7	-11	-10
Cn1c(N)c(C(=O)CCl)c(=O)n(C)c1=O	-1.4	-0.7	-1.9	25	30	4.1	0%	-4	nt	-1
CN1/C(=C\C(=O)COC(=O)c2ccco2)C(C)(C)c2ccccc21	-1.0	0.2	?	-23	-13	51	3%	-37	12	-4
COc1ccc(NS(=O)(=O)c2ccc(C)c(C(=O)N(C)Cc3ccc(C)cc3)c2)cc1	4.5	0.5	0.9	-3	-8	2.3	3%	7	5	11
Cc1ccc(CN2CC(C(=O)NNC(=O)Cn3ccc(C(F)(F)F)n3)CC2=O)cc1 (stereo unspecified)	2.3	0.6	nt	12	21	-1.7	5%	nt	-6	nt
Nn1c(COc2ccc(Cl)cc2)n[nH]c1=S	-5.4	-0.8	-2.7	1	3	-2.7	24%	-21	-2	-5
Cc1cc(NC(=O)c2ccc(C#N)cc2)n(-c2ccccc2)n1	-0.9	-0.4	nt	-3	-2	-0.3	nt	nt	-1	nt
CCN(CC)C(=S)SCC(=O)Nc1cccc(C(F)(F)F)c1	nt	1.6	1.4	nt	nt	nt	-1%	-4	-8	-20
N#CCCN(C(=O)CSc1nc2nc(-c3cccs3)cc(C(F)(F)F)c2c(=O)[nH]1)c1ccccc1	-2.9	-0.1	2.5	6	1	-3.9	nt	14	2	19
O=C(Nc1ccccc1N1CCOCC1)c1ccc2c(c1)C(=O)N(Cc1ccncc1)C2=O	nt	0.3	-0.1	nt	nt	nt	8%	22	-2	-3
CC(=O)N1CC(C)Sc2ccc(S(=O)(=O)NCCc3ccc(C)cc3)cc21 (stereo unspecified)	-2.9	-1.4	0.5	-44	-69	-15	1%	-14	5	1
COc1ccc(NC(=O)c2ccc([N+](=O)[O-])cc2[N+](=O)[O-])c(OC)c1	-0.9	0.0	2.4	18	25	0.0	4%	43	-4	61*
CCOC(=O)C(NC(=O)Nc1ncccn1)(Oc1ccccc1)C(F)(F)F (stereo unspecified)	nt	0.1	-3.0	nt	nt	nt	3%	-2	-5	4
O=C(COc1ccc(F)cc1)Nc1nccs1	0.3	-8.0	2.2	1	5	-1.7	1%	4	nt	0

Four successive entries already listed:
SMILES	MLL AF4-AF9 inh	Bfl-1 A1 inh	RanGTP-Imp inh	Ecoli rRNA inh	Ecoli rRNA inh OD600	Ecoli rRNA inh RFP	Vif A3G	Calb FLC	Beta apoptosis	T cruzi repl
CC(=O)N1CC(C)Sc2ccc(S(=O)(=O)NCCc3ccc(C)cc3)cc21 (stereo unspecified)	-2.9	-1.4	0.5	-44	-69	-15	1%	-14	5	1
COc1ccc(NC(=O)c2ccc([N+](=O)[O-])cc2[N+](=O)[O-])c(OC)c1	-0.9	0.0	2.4	18	25	0.0	4%	43	-4	61*
CCOC(=O)C(NC(=O)Nc1ncccn1)(Oc1ccccc1)C(F)(F)F (stereo unspecified)	nt	0.1	-3.0	nt	nt	nt	3%	-2	-5	4
O=C(COc1ccc(F)cc1)Nc1nccs1	0.3	-8.0	2.2	1	5	-1.7	1%	4	nt	0

Returning to the listing; the two compounds before the break are reprinted first.
SMILES	MLL AF4-AF9 inh	Bfl-1 A1 inh	RanGTP-Imp inh	Ecoli rRNA inh	Ecoli rRNA inh OD600	Ecoli rRNA inh RFP	Vif A3G	Calb FLC	Beta apoptosis	T cruzi repl
CCOC(=O)C(NC(=O)Nc1ncccn1)(Oc1ccccc1)C(F)(F)F (stereo unspecified)	nt	0.1	-3.0	nt	nt	nt	3%	-2	-5	4
O=C(COc1ccc(F)cc1)Nc1nccs1	0.3	-8.0	2.2	1	5	-1.7	1%	4	nt	0
CC(C)N(C(=O)CSc1n[nH]c(=O)n1CCc1ccccc1)C(C)C	-2.2	-0.1	-1.2	3	13	0.5	nt	-8	-1	4
CCOC(=O)c1nc(C)n(-c2ccc(Cl)cc2Cl)n1	nt	-0.3	-1.1	nt	nt	nt	23%	-11	-1	-8
CCn1nc(C(=O)OCC(=O)N(CCC#N)c2ccccc2)c2ccccc2c1=O	3.1	-0.7	nt	-1	1	-0.8	-4%	nt	-4	nt
COc1ccccc1/C=N/NC(=O)c1ccccc1NS(=O)(=O)c1ccc(C)cc1	nt	0.7	-0.1	nt	nt	nt	8%	-13	2	-4
O=C(/C=C/c1ccco1)NC1CCCC1	-5.5	0.3	1.2	20	17	2.7	31%	-4	-9	-8
Cc1ccccc1C1=N/C(=C/c2cccnc2)C(=O)O1	-3.1	1.2	6.4	12	-2	0.5	6%	-11	-4	-16
COc1ccccc1NC(=O)Cn1c(=O)n(CCc2c[nH]c3ccccc23)c(=O)c2cccnc21	0.9	-0.7	0.8	4	6	-0.7	nt	-3	8	-3
N/C(=N\OC(=O)Cc1cccc2ccccc12)c1ccccn1	nt	-0.7	-5.1	nt	nt	nt	0%	0	-2	-7
O=C(Nc1ccccc1N1CCOCC1)C1CCN(S(=O)(=O)c2ccc(Cl)cc2)CC1	-4.2	0.2	4.1	-3	-6	6.6	?	-6	9	2
COC(=O)c1ccc(/C=N/NC(=O)c2cccc(F)c2)cc1	10	-13	-1.6	17	26	2.8	6%	33	6	-1
CS(=O)(=O)N1CCN(c2ccc(NC(=S)NC(=O)c3ccc4c(c3)OCO4)cc2)CC1	0.1	0.0	-4.9	20	15	-2.4	nt	-5	-3	1
CN(C)C(=O)CN1c2cccc3cccc(c23)S1(=O)=O	-4.6	-2.8	?	11	9	0.4	-7%	18	-1	-10
C=CCSc1nnc(Cc2cc(=O)[nH]c(=O)[nH]2)n1-c1cc(C)ccc1C	nt	0.2	2.3	nt	nt	nt	0%	10	1	-10
O=C(c1cn(-c2ccccc2)nc1-c1cccnc1)N1CCN(S(=O)(=O)c2cccc(F)c2)CC1	-1.2	-0.7	nt	5	16	-0.4	-13%	nt	-3	nt
Cc1cc(C(=O)Nc2ccc(C)c(S(=O)(=O)N3CCOCC3)c2)c2ccccc2n1	2.2	0.1	nt	-5	-3	-0.4	8%	nt	5	nt
Cc1nc(N)sc1-c1csc(Nc2ncccn2)n1	-1.0	nt	-0.6	14	10	3.0	-6%	-2	nt	-27
CC1C2CC(C/C2=N/NC(=O)c2cccs2)C1(C)C (stereo unspecified)	-7.4	0.8	-1.2	3	-2	-0.8	-2%	6	-2	20
NS(=O)(=O)c1ccc(CCNC(=O)/C=C/c2ccccc2[N+](=O)[O-])cc1	-2.2	0.4	1.3	6	9	-2.7	4%	1	-9	-15
CCn1nc(C)c(CN2CCN(Cc3ccsc3)C(CCO)C2)c1C (stereo unspecified)	-13	-0.1	-1.7	16	6	-4.0	nt	13	-9	1
COc1cc(NC(=O)c2cc(C(C)C)on2)cc(OC)c1OC	-4.4	0.0	1.0	-2	-4	-5.9	1%	4	2	2
O=C(/C=C/Nc1cccc([N+](=O)[O-])c1)c1cccs1	nt	-2.8	-1.5	nt	nt	nt	3%	18	nt	7
Cc1cc(C)cc(NC(=O)NNC(=O)c2cc3occc3[nH]2)c1	-1.2	0.5	1.6	4	12	0.6	-8%	?	2	-2
O=C(O)CCN=Cc1c(O)c2ccccc2oc1=O	-1.3	-1.3	-0.6	-5	-16	3.2	2%	22	-5	-18
CCN(N=Nc1cccc([N+](=O)[O-])c1)c1cccc([N+](=O)[O-])c1	nt	-0.3	-1.9	nt	nt	nt	8%	-1	6	24
S=C(NN=C1CCN(Cc2ccccc2)CC1)NC1CCCCC1	13	0.5	0.9	10	21	-1.3	3%	-3	1	33
Cc1cccc(Oc2ncnc(N)c2[N+](=O)[O-])c1C	-1.6	-0.4	-2.0	16	6	2.5	nt	3	-5	-1
CCOC(=O)C1=C(CSc2nc(-c3ccncc3)ccc2C#N)OC(N)=C(C#N)C1c1ccc(OC)cc1 (stereo unspecified)	nt	-0.9	-116	nt	nt	nt	-3%&10%	10	-3	5
COc1ccc(NC(=O)CSc2[nH]c(=O)cc(C)c2C#N)cc1OC	3.7	0.0	1.3	-9	-6	2.2	8%	41	-3	8
Cc1ccc(C2=CC(C)(c3ccc(C)cc3)Nc3nc(C(F)(F)F)nn32)cc1 (stereo unspecified)	0.8	0.1	-4.0	2	10	0.0	nt	18	8	23
O=C(NCc1ccccc1)c1onc(CSc2ccc(Cl)cc2)c1C(=O)NCC1CC1	-5.1	-0.7	-2.2	-8	-14	-9.6	nt	4	-1	4
O=C(NCCc1ccccc1)C(=O)NCC1OCCCN1S(=O)(=O)c1cc(F)ccc1F (stereo unspecified)	-0.9	0.8	1.9	-2	0	0.7	nt	5	3	7
CC(C)(C)c1nc(NCCO)c2nnn(Cc3ccccc3)c2n1	-0.1	-0.3	-1.3	-38	-70	2.8	nt	-10	9	9
N#CC1=C(N)Oc2c(oc(CO)cc2=O)C12C(=O)Nc1ccc(Cl)cc12 (stereo unspecified)	nt	0.1	0.0	nt	nt	nt	16%	1	-4	-6
c1ccc(CN2CCN(c3nc(-c4ccccc4)nc4ccccc34)CC2)cc1	nt	1.2	-1.8	nt	nt	nt	0%	0	10	44
COc1ccccc1C(CNC(=O)CNC(=O)c1ccccc1Cl)N1CCCC1 (stereo unspecified)	13	0.0	nt	4	8	0.0	-11%	nt	-2	nt

Assay outcomes from PubChem.

Not all compounds are listed; count on the stated rates, not on these rows.
